Compound activity (PubChem BioAssay)
TRPML1 inh: inhibitors of human TRPML1 channel. 390,000 tested, 0.02% active. activity change, negative = inhibition, % (no concentration beside the values). AID 624415. Q9GZU1. TRPML1-inducible cells, Ca2+ dye fluorescence, FDSS; stronger effect = lower value; inhibition of EC80 agonist-evoked calcium signal; in the data active means activity change below about -50%; inconclusive means about -30% to -50%; inactive means above about -30%;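 also: stimulus is agonist 54-4 at its EC80 concentration; % is scaled to controls: 0 for no effect and ±100 for the full control effect; compound concentration not given in the record; the text of the record puts the active cut at -80%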
Target sequence (Q9GZU1 whole entry, looked up): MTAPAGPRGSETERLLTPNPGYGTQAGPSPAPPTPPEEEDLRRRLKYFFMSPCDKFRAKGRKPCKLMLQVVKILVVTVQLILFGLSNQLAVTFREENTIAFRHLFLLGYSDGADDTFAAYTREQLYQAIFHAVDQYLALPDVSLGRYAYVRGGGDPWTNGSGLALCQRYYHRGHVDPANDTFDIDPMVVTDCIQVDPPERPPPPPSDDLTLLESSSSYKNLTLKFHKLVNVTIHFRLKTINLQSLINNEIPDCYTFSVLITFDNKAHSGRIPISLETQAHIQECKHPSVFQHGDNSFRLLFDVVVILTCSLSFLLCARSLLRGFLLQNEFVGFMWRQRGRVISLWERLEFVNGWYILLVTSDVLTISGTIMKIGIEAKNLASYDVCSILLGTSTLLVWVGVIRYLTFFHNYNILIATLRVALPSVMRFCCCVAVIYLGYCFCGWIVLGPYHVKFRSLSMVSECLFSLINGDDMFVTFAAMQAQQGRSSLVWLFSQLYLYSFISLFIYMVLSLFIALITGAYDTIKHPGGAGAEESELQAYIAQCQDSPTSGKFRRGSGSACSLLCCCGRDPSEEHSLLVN
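TRPML1-DL cells, Tet-induced overnight (~16 h, 37 °C) at 1,500 cells/well, were loaded with Ca8 no-wash dye plus quencher for 45-90 min at room temperature. Compounds were pinned during FDSS kinetic reading; agonist 54-4 at EC80 (4 uM final) then added.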
gsp antag: antagonizes gsp, the McCune-Albright syndrome mutation; 340,000 tested, 0.4% active; Potency, µM (highest dose often 76.9 µM), without a hit: at the highest dose activity change, negative = inhibition, most hits filed as inhibitors; gsp-mutant cells, cAMP HTRF, 30 min; control for the full effect not named in the record; AID 624288; active = falling curve of any shape with a large fitted effect; inconclusive = falling curve, mostly with a smaller effect; inactive = flat or rising curve; cell line not stated here;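 also: intracellular cAMP measured with PDE inhibitor Ro 20-1724 present during compound exposure; potency is read from the fitted curve at half-maximal effect; % is scaled to controls: 0 for no effect and ±100 for the full control effect; nearly all actives have a fitted effect of over 65% in size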
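Cells in G418 medium, seeded 16-24 h, 37C; buffer exchange to DPBS + 1 mM CaCl2, 0.5 mM MgCl2, 0.05% BSA; cpds in DMSO + […] (300 uM stock), 30 min 37C; HTRF cAMP detection.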
Sfp inh: inhibitors of Bacillus subtilis Sfp phosphopantetheinyl transferase; Q9F4F7; Potency, µM, inactives show max response, negative = inhibition, usual class: inhibitors; 310,000 tested, 3.5% active; Biochemical Sfp PPTase activity, qHTS; active = well fitted inhibition curve with a large enough effect; inconclusive = small, poorly fitted or top-dose-only effect, or another doubt; inactive = no such curve, though single readings can be large or run the other way;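 also: the enzyme is Sfp with the accession as filed and its product quenches rhodamine fluorescence; potency is read from the fitted curve at half-maximal effect; 0% = enzyme reaction without inhibitor and -100% = no enzyme wells; top concentration of the series not given in the record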
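With Hepes-Na pH 7.6 buffer containing 10 mM MgCl2, Sfp (15 nM) modified BHQ-2-YbbR (12.5 uM) using rhodamine-CoA (5 uM). Two reads 30 minutes apart at 525/598 nm yielded each well's rate.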
Menin-MLL FL inh: menin-MLL binding inhibition, fluorescein peptide | 290,000 tested, under 10 active | AID 1766 | FP activity change, % at 61.4 µM | Fluorescence polarization, fluorescein-MLL peptide displacement from menin; inconclusive = falling polarisation curve, or a change in total fluorescence; inactive = total fluorescence flat and polarisation flat or rising; no compound was filed as active; the % refers to the polarisation; negative = inhibition;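 also: % of control where 0% means no effect; inhibitors lower the polarisation; unlabelled MLL peptide was the positive control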
ClpP mod: qHTS Assay for Activators of ClpP | purified B. subtilis ClpP, FRET peptide cleavage, 20 min | Potency, µM (top dose mostly 57.5 µM), inactives show at the top dose activity change, negative = active | 340,000 tested, 1.9% active; active = well fitted falling curve with a large enough effect; inconclusive = small, poorly fitted or top-dose-only effect; inactive = no such curve, though single readings can be large or run the other way; also: potency is read from the fitted curve at half-maximal effect; the source files actives as falling curves though it sought activators and does not explain the sign; nearly all actives have a fitted effect of over 65% in size; many hits overshoot -100%
Target sequence (P80244 whole entry, looked up): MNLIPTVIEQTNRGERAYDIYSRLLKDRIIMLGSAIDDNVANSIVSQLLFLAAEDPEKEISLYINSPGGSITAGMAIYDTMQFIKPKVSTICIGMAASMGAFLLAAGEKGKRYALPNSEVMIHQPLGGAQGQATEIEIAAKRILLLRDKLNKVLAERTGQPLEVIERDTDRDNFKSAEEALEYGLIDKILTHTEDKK
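Buffer: 100 mM Tris/HCl pH8, 100 mM KCl, 0.05% low protease BSA, 2.5% glycerol, 0.01% Tween-20. ClpP 10 microg/mL final; 20 min RT; delta FRET normalized to ADEP and DMSO controls.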
gsp ag: gsp mutant agonism. gsp mutant cells, cAMP HTRF, 30 min; control for the full effect not named in the record. Potency, µM (highest dose often 76.9 µM), without a hit: top-dose activation (cAMP increase), usual class: activators. 340,000 tested, 0.13% active; active = well fitted activation curve with a large enough effect; inconclusive = small, poorly fitted or top-dose-only effect, or another doubt; inactive = no such curve, though single readings can be large or run the other way; cell line not stated here;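 also: phosphodiesterase inhibitor Ro 20-1724 added with compounds to block cAMP breakdown; potency is read from the fitted curve at half-maximal effect; nearly all actives have a fitted effect of over 60% in size; about a fifth of the inactives were tested at one dose only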
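Cells in DMEM/10% FBS with G418 were pretreated with compounds in DMSO plus […] (300 uM stock) for 30 min at 37C. cAMP was measured by HTRF (cAMP-d2 plus anti-cAMP antibody-K) after 30 min at room temperature.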
TRPV1 potentiator: human TRPV1 potentiation; Q8NER1; TRPV1-expressing cells, Fluo-8 calcium influx, capsaicin EC20 potentiation; host cell line not named in the record; control for the full effect not named in the record; potentiation, % at 8.33 µM; 320,000 tested, 0.02% active; AID 540277; active means potentiation above 80%; inconclusive means 30% to 80%; inactive means below 30%; also: 0% is about no effect
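Cells expressing TRPV1 were dye-loaded with Fluo-8 and read kinetically: 10 s baseline, 3 min after compound (agonist portion), then 2 min after EC20 capsaicin (allosteric enhancer portion). Calcium-bound dye fluorescence at 480/520 nm.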
* hit, by the source's call; ? = inconclusive; . = no result given; [ ] = another dose, or the depositor's remark.

SMILES	TRPML1 inh	gsp antag	Sfp inh	Menin-MLL FL inh	ClpP mod	gsp ag	TRPV1 potentiator
COCCCNc1ncnc2sc3c(c12)CCC(C)C3 (stereo not drawn)	-6	-7%	1%	1.8	-11%	7%	-7
CC(C)C(NS(=O)(=O)c1ccc2c(c1)oc(=O)n2C)C(=O)N1CCN(c2ccccc2F)CC1 (stereo not drawn)	-16	-5%	9%	4.9	1.0%	1%	-1
O=C(N/N=C/c1ccncc1)C1CC1C(=O)N/N=C/c1ccncc1 (stereo not drawn)	-19	-2%	10%	.	?	22%	7
CCCc1cc(C(=O)Nc2cccc([N+](=O)[O-])c2)cs1	3	-11%	-10%	-0.5	-2.9%	0%	-9
CC(C(=O)N1CCCCC1)N(C)CC(=O)Nc1cccc(F)c1 (stereo not drawn)	28	18%	.	.	-0.4%	9%	21
Cc1ccc2nsnc2c1NC(=O)c1ccc([N+](=O)[O-])o1	-2	.	15%	-6.2	.	-1%[15.4 µM]	21
O=S(=O)(Nc1cccc(-n2cnnn2)c1)c1ccc(Cl)nc1	-19	-1%	15%	.	-0.8%	?	3
O=C(Cn1nnc2ccccc21)NC1CCCCC1	-8	-5%	-19%	0.5	-1.0%	-17%	-16
COc1ccc(CNc2ccc3c(c2)ncn3C)cc1OC	-13	-9%	8%	-5.4	.	-60%[inhibitor]	-2
Cc1ccc(OCC(=O)N2CCN(S(C)(=O)=O)CC2)cc1	10	5%	10%	1.5	.	0%[15.4 µM]	6
O=C(CN1C(=O)NC2(CCCCCC2)C1=O)NCc1ccc(F)cc1	2	-2%	.	.	0.9%	-4%[15.4 µM]	.
O=C(COC(=O)c1cccc(Cl)c1)NCCN1C(=O)CSC1=O	-4	1%	4%	5.0	0.6%	-5%[15.4 µM]	-1
CC(C)(C)c1ccc(C(=O)Nc2ccccc2NC(=O)c2ccco2)cc1	26	-23%	5%	-0.4	3.0%	19%	1
COc1ccc(CNC(=O)C2CCN(C(=O)c3sccc3-n3cccc3)CC2)cc1	41	-7%	6%	0.0	-0.7%	8%	5
CCOC(=O)N1CCC(NC(=O)C2CCN(S(=O)(=O)N3CCC(C)CC3)CC2)CC1	-13	-9%	16%	-0.5	-0.7%	-7%	-7
Cc1c(Cl)cccc1NC(=S)NCC(O)c1ccccc1 (stereo not drawn)	16	-11%	12%	-2.7	-1.3%	-10%[15.4 µM]	18
Cc1ccc(-c2nc(-c3ccccn3)no2)cc1	5	3%	-4%	4.2	-1.9%	-45%[inhibitor]	-14
Cc1ccc(C)c(SCC(=O)Nc2ccc(S(=O)(=O)Nc3ncccn3)cc2)c1	-9	-6%	12%	1.9	.	5%[15.4 µM]	-7
COc1cccc(N/N=C/c2cccc(Br)c2O)c1	-10	-11%	2%	-2.5	.	-8%[15.4 µM]	-1
CCC(Sc1nc2n[nH]c(C)c2c(=N)n1-c1cc(Cl)ccc1C)C(=O)N1CCOCC1 (stereo not drawn)	-6	-2%	0%	-0.3	0.4%	5%	7
CCCNC(=O)Cn1cnc([N+](=O)[O-])n1	21	10%	14%	0.2	5.1%	-34%	-3
Cc1ccc(C2=N/C(=C/c3cccs3)C(=O)N2Nc2ccccc2)cc1	2	3%	2%	-1.3	-1.4%	-22%	-8
CCc1cc(=O)oc2cc(C)cc(OCC(=O)NC(Cc3c[nH]c4ccc(O)cc34)C(=O)O)c12 (stereo not drawn)	.	6%	9%	-5.7	?	.	-5
Cc1ccc(NC(=O)CCC(=O)N/N=C/c2cccnc2)cc1	-2	6%	16%	-7.5	.	-19%	-4
CCc1cccc(CC)c1NC(=O)COC(=O)CC1c2ccccc2CCN1S(=O)(=O)c1ccc(F)cc1 (stereo not drawn)	8	-11%	4%	1.5	1.6%	-12%	15
SMILES	TRPML1 inh	gsp antag	Sfp inh	Menin-MLL FL inh	ClpP mod	gsp ag	TRPV1 potentiator
O=C(COc1ccc(F)cc1)OCCN1CCOCC1	-10	-3%	10%	-0.7	?	-29%	10
CC(=O)OCC(=O)[C@@]1(O)CC[C@H]2[C@@H]3CCC4=CC(=O)C=C[C@]4(C)[C@H]3C(=O)C[C@@]21C	8	-5%	6%	-2.6	0.6%	-4%	-25
COc1ccc(OC)c(NS(=O)(=O)c2c(C)nc3sccn3c2=O)c1	-10	-3%	13%	2.9	0.4%	9%	-11
COc1ccc(CCNC(=O)c2c[nH]c3ccccc3c2=O)cc1OC	-8	-6%	?	1.8	0.4%	8%	-1
Cc1ccc(Oc2ccc(S(=O)(=O)N3CCOCC3)cc2C(N)=O)cc1C	44	-5%	5%	.	1.1%	13%[15.4 µM]	-17
CCOC(=O)C1CCCCN1Cc1ccccc1C(F)(F)F (stereo not drawn)	1	-22%	?	2.6	-1.4%	-13%	9
O=[N+]([O-])c1cccc(N(CC2CO2)S(=O)(=O)c2ccccc2)c1 (stereo not drawn)	19	9%	17%	-1.7	.	-9%[15.4 µM]	-18
O=C(COc1cc(Cl)c(Cl)cc1Cl)NCCN1CCOCC1	-9	6%	11%	3.1	0.9%	0%	3
Cc1cccc(C)c1Nc1nnc(SC(C)C(=O)Nc2c(C)n(C)n(-c3ccccc3)c2=O)s1 (stereo not drawn)	-9	2%	5%	2.5	.	-6%[15.4 µM]	4
COc1ccc(OC)c(NC(=O)CN(C)S(=O)(=O)c2ccc3nc(C)sc3c2)c1	-17	-3%	10%	1.0	-3.0%	-1%	-18
CC(C)NC(=O)C1=NN(c2ccccc2)C(=O)CC1	0	8%	6%	-1.7	0.4%	-8%[15.4 µM]	-7
COc1ccccc1NC(=O)c1cc(N2C(=O)C3C4CCC(C4)C3C2=O)ccc1Cl (stereo not drawn)	-17	-9%	10%	-2.9	-1.9%	0%	0
O=C(Cn1ncc2c([nH]c3ccccc32)c1=O)NCCc1ccccc1	7	3%	-13%	0.0	-18%	?	4
COC(=O)c1[nH]c(=O)c2ccccc2c1OCc1ccccc1	5	-20%	-5%	3.7	-1.3%	-14%	-14
CC(C)C(OC(=O)c1cccs1)C(=O)NCc1ccc(F)cc1 (stereo not drawn)	-16	10%	0%	12	-2.4%	-43%[inhibitor]	14
O=C(N/N=C/c1ccc[nH]1)c1cccc([N+](=O)[O-])c1	10	2%	-6%	2.1	-1.1%	1%[15.4 µM]	-5
CC(=O)c1ccc(O)c(CSC2=NCCS2)c1	-1	-9%	9%	-0.9	.	11%[15.4 µM]	4
NC(=O)c1ccccc1[N+](=O)[O-]	2	0%	.	.	0.8%	.	-3
Cc1cccc(-n2c(SCN3C(=O)c4ccccc4C3=O)nc3ccccc3c2=O)c1	.	.	32%[activator]	5.6	.	.	0
Cc1ccccc1NC(=O)CSc1nnc2ccc(-c3cccnc3)nn12	1	13%	.	.	.	-17%[15.4 µM]	-19
O=C1CC(N(O)c2ccccc2)C(=O)N1c1ccc(Cl)c(Cl)c1 (stereo not drawn)	-22	1%	11%	6.8	-3.1%	6%	0
CCC(C)[C@H](NC(=O)c1cn(CC)c2cc3c(cc2c1=O)OCO3)C(=O)NCCCn1ccnc1 (stereo partly drawn)	-3	14%	10%	-1.2	-30%	23%	8
COc1cc(C)nc(N2CCC(C(=O)NCC3CCCO3)CC2)n1 (stereo not drawn)	1	15%	.	.	.	-9%[15.4 µM]	7
COc1ccc2c(-c3ccccc3)cc(=S)[nH]c2c1	22	-1%	5%	-4.5	1.2%	4%[15.4 µM]	-24
CCC(C)(C)n1nnnc1C(c1ccccn1)N1CCCCC1 (stereo not drawn)	-1	15%	1%	-0.5	-0.3%	18%	-21

Random excerpt: 3 records from the list.
SMILES	TRPML1 inh	gsp antag	Sfp inh	Menin-MLL FL inh	ClpP mod	gsp ag	TRPV1 potentiator
CC(=O)c1ccc(O)c(CSC2=NCCS2)c1	-1	-9%	9%	-0.9	.	11%[15.4 µM]	4
COc1ccccc1NC(=O)c1cc(N2C(=O)C3C4CCC(C4)C3C2=O)ccc1Cl (stereo not drawn)	-17	-9%	10%	-2.9	-1.9%	0%	0
Cc1cccc(-n2c(SCN3C(=O)c4ccccc4C3=O)nc3ccccc3c2=O)c1	.	.	32%[activator]	5.6	.	.	0

Continuation:
SMILES	TRPML1 inh	gsp antag	Sfp inh	Menin-MLL FL inh	ClpP mod	gsp ag	TRPV1 potentiator
Cc1ccc(OCC(=O)NC2=NCCS2)cc1	4	-3%	11%	5.5	-11%	-26%	3
CC(NC(=O)CCc1nnc(-c2ccccc2)o1)c1ccccc1 (stereo not drawn)	13	1%	4%	4.1	1.3%	-26%	-6
CCOC(=O)CC1C(=O)NCCN1S(=O)(=O)c1ccc(Cl)c(Cl)c1 (stereo not drawn)	-15	-6%	11%	-1.9	-0.8%	10%	-5
CC(C)(C)c1cc(N2CCOCC2)n2ncc(-c3ccc(Cl)cc3)c2n1	0	3%	3%	-1.1	.	18%	-1
CCOC(=O)CSc1nc2cc(S(=O)(=O)Nc3ccccc3OC)ccc2o1	0	?	15%	-2.4	2.9%	-8%	?
CC(C)(O)C#Cc1ccc(C(=O)NCCC(=O)O)s1	9	8%	16%	4.8	.	?	4
O=C1NN(c2ccc(Cl)c(Cl)c2)C(=O)/C1=C/c1ccc(-c2ccccc2C(=O)O)o1	10	0%	25%	-3.1	.	-3%	9
Oc1ccc(COCc2ccccc2)c2cccnc12	-10	1%	24%	1.9	3.9%	-21%	19
Cc1ccc(C(=O)n2c(-c3ccccc3)cnc2SCC(=O)Nc2ccc(C)cc2C)cc1	16	-2%	9%	0.5	-15%	-3%	-15
OCCC1CN(Cc2ccc3nonc3c2)CCN1Cc1ccsc1 (stereo not drawn)	-25	8%	9%	0.6	-26%	-5%[15.4 µM]	8
COc1cc(C(=O)c2ccccc2C(=O)O)c(OC)c2c1CCCC2	19	-8%	.	.	-1.9%	-71%[inhibitor]	.
CC(=O)CSc1nnc2c3ccccc3nc(C(C)(C)C)n12	-5	2%	20%	0.5	-2.5%	11%	11
CCOC(=O)C1=C(CC)Nc2ccccc2N/C1=N\S(=O)(=O)c1ccccc1F	19	-2%	.	.	0.6%	6%	6
COC(=O)CC1COc2ccccc2N1C(=O)/C=C/c1ccccc1 (stereo not drawn)	2	-4%	10%	-5.6	1.8%	1%	10
